# Compound activity deposited in PubChem BioAssay by several laboratories.
# Bead autofluor: counter-screen for toxin protease inhibitors: compound fluorescence. compound autofluorescence counterscreen, microsphere flow cytometry; stronger effect = higher value. fluorescence intensity (concentration not given with the values). 360,000 tested, 3.1% active;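 active = at least 3 SD above the mean of all compounds, about 16000 in these data; inconclusive = too few beads counted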;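 note: 100 nL of 1 mM stock went into each well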
# BJeLR lethal: BJeLR cell viability loss | BJeLR (HRASV12) viability, CellTiter-Glo ATP luminescence, 48 h; reference of the scale not given here | AID 1554 | 300,000 tested, 0.17% active | inhibition, % (concentration not given with the values);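 active = replicate mean above 50%; inconclusive = above 50% but judged a plate artefact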;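 note: 50 nL library stock added to about 25 µL; numbers are from one replicate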
# Sa ugtP lethal: growth inhibition of S. aureus ugtP deletion strain; S. aureus RN4220 ugtP deletion, OD600 growth, 16 h; some inactives read as strong as hits; growth inhibition, % (test concentration not listed); 330,000 tested, 0.54% active; AID 1259309;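 active = z-score under -3 and OD600 up to 0.15 on both plates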;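 note: plate controls were untreated wells for no effect and antibiotic for full effect; wells of about 80 µL received 100 nL stock; the first replicate is given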
# PrP UTR inh: inhibition of PrP 5' UTR reporter expression | cell-based PrP 5' UTR mRNA reporter, plate reader | inhibition, % (test concentration not listed) | AID 488862 | 340,000 tested, 0.35% active;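 active = every replicate at 50% or more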;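 note: 0 = median of the neutral control wells; tested in H4 reporter cells; numbers are from one replicate; inactives centre near -14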
# Mtb hypoxia rep: Mtb hypoxia fluorescent reporter inhibition; M. tuberculosis hypoxia-regulated fluorescent reporter, fluorescence; 300,000 tested, 0.1% active; fluorescence inhibition, % (test concentration not listed);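 active = 35 to 45% if threefold the growth effect, above 45% if 1.5-fold the growth effect; inactive = the rest, general growth blockers included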;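 note: wells of about 50 µL received 100 nL stock; 0% = vehicle wells and 100% = reference inhibitor wells; whole bacteria with a GFP reporter of the hypoxia response; strong numbers were not always called active; many hits fall short of the cut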
# Sa RN4220 lethal: kills Staphylococcus aureus RN4220; S. aureus RN4220 growth, OD600, 16 h; inhibition, % (no concentration beside the values); 330,000 tested, 0.33% active;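 active = z-score of -3 or lower and OD600 up to 0.18 on both plates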;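 note: plate controls were untreated cells for no effect and reference antibiotic for full effect; stock transfer was 100 nL into about 80 µL; one replicate is shown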
# Mtb hypoxia rep growth: second read-out of Mtb hypoxia rep, no call of its own (marks repeat the call); growth inhibition, %; measured here: M. tuberculosis growth (absorbance);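 0% = vehicle and 100% = reference antibiotic; read after six days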
# * = called active by the depositor; ? = inconclusive; / = no result given; & = joins results of further samples.
1) Cc1cccc(C(=O)OCC(=O)N(CC(C)C)c2c(N)n(Cc3ccccc3)c(=O)[nH]c2=O)c1O
2) O=C(CSc1ccccc1C(=O)O)NCc1ccccc1
3) C#CC1(NC(=O)NC(C)(C)C)CCCCC1
4) CC(=O)ON=C(c1nonc1N)N(C)C
5) C#CCOCCOCCOCCNc1nc(N2CCN(C(=O)[C@H]([C@@H](C)CC)n3cc([C@@H](N)Cc4ccc(O)cc4)nn3)CC2)nc(N2CCN(C(=O)[C@H](Cc3ccc(O)cc3)n3cc([C@@H](N)C(C)CC)nn3)CC2)n1 (stereo not given in full)
6) O=C(C=Cc1ccco1)N1CCCC(c2ccccc2)C1 (stereo not given)
7) Cc1ccc(C(=O)Nc2ccc(N3CCOCC3)cc2)cc1
8) COc1ccc(C(CNc2nc(-c3cccnc3)nc3ccccc23)N(C)C)cc1 (stereo not given)

Assay by compound	1	2	3	4	5	6	7	8
Bead autofluor	5209	4063	2211	/	4617	/	10301	6873
BJeLR lethal	3	-3	-4	/	-2	/	-7	-5
Sa ugtP lethal	9	5	2	-2	-7	2	8	-14
PrP UTR inh	-15	-57	-7	/	-11	/	-50	-22
Mtb hypoxia rep	0	2	9	1	8	3	6	12
Mtb hypoxia rep growth	10	5	5	15	22	12	3	7
Sa RN4220 lethal	0.5	3.9	-0.5	0.4	-18	3.6	0.3	2.8

9) Cc1ccc(-c2nnn(CC(=O)NCc3ccccc3)n2)c(-n2cnnn2)c1
10) Cc1ccc(-c2c(C(=O)Nc3ccccc3C)c(C)[nH]c(=S)c2C#N)o1
11) O=C(Nc1nc(-c2ccccn2)cs1)c1ncc(Cl)c(Cl)c1Cl
12) COc1cc(CNCCSc2nnnn2C)cc(OC)c1OC
13) COc1cc(Cn2c(=O)c3c(OC)c(C)cnc3n(C)c2=O)cc(OC)c1
14) Cc1ccccc1Nc1nc(N)nc(CN2CCN(c3ccccn3)CC2)n1
15) O=C(COc1ncnc2scc(-c3ccccc3)c12)NCCN1C(=O)CSC1=O
16) CCOC(=O)c1c(/N=C/c2cc([N+](=O)[O-])ccc2O)sc(C)c1C

Assay by compound	9	10	11	12	13	14	15	16
Bead autofluor	/	4769	3167	8512	4863	5801	/	10787
BJeLR lethal	-3	1	0	10	4	4	0	-9
Sa ugtP lethal	-2	/	-16	11	1	7	3	/
PrP UTR inh	-16	-34	-11	-33	1	-7	/	-40
Mtb hypoxia rep	1	/	2	2	14	/	0	/
Mtb hypoxia rep growth	5	/	1	2	8	/	-5	/
Sa RN4220 lethal	5.3	/	-0.9	4.5	1.6	-1.3	-13	/

17) Cc1nc2c(ccc3nc(NC(=O)C4CC4)sc32)s1
18) O=C(CN(Cc1ccccc1F)S(=O)(=O)c1ccc(Cl)cc1)NCC1CCCO1 (stereo not given)
19) CCCc1cc(=O)n2[nH]c(NCc3c(Cl)cccc3Cl)nc2n1
20) CC1(CCc2ccccc2)NC(=O)NC1=O (stereo not given)
21) COc1ccc(NC(=O)CSc2cn[nH]n2)cc1OC
22) Cc1cc(C=C2C(=O)NC(=O)NC2=O)c(C)n1-c1ccc2c(c1)OCO2
23) C/C(=N\NC(=O)c1cccs1)c1ccc2ccccc2c1
24) COc1ccc2oc(=O)c(-c3nnc(N)s3)cc2c1

Assay by compound	17	18	19	20	21	22	23	24
Bead autofluor	4386	5693	11127	3556	3637	9647	3791	2393
BJeLR lethal	2	-13	-2	/	-3	9	-18	4
Sa ugtP lethal	3	5	-1	0	-8	6	/	6
PrP UTR inh	-37	-8	-24	-4	-28	-3	-57	-20
Mtb hypoxia rep	5	17	5	-7	4	13	/	0
Mtb hypoxia rep growth	4	7	18	20	0	9	/	-1
Sa RN4220 lethal	-0.3	1.6	8.7	2.8	-6.2	-0.6	/	3.8

25) N=c1c(S(=O)(=O)c2ccc(F)cc2)cc2c(=O)n3ccccc3nc2n1CC1CCCO1 (stereo not given)
26) Nc1ncnc2c1ncn2[C@@H]1O[C@H](CNS(=O)(=O)C2CC2)[C@@H](O)[C@H]1O
27) O=C(CNC(=O)c1ccccc1)OCCCOC(=O)CNC(=O)c1ccccc1
28) O=C(CSc1nc2ccccc2[nH]1)Nc1c(F)c(F)c(F)c(F)c1F
29) Cc1ccccc1C(OCCN(C)C)c1ccccc1 (stereo not given)
30) COC(=O)CNC(=O)Cn1cnc2sc(C)c(S(=O)(=O)N3CCN(c4ccccc4OC)CC3)c2c1=O
31) O=C(Cc1coc2cc(O)ccc12)N1CCN(S(=O)(=O)c2ccc(Br)cc2)CC1
32) Cc1ccccc1-c1cnn(-c2cccc([N+](=O)[O-])c2)c1N

Assay by compound	25	26	27	28	29	30	31	32
Bead autofluor	5191	3287	6087	4195	4418&4597	6035	3890	4377
BJeLR lethal	5	/	4	19	-8	8	/	1
Sa ugtP lethal	1	3	3	-3	-1&3	0	-1	-2
PrP UTR inh	12	-14	3	-34	-21&-1&41	-24	-22	-20
Mtb hypoxia rep	2	-5	12	21	7&1	6	7	6
Mtb hypoxia rep growth	7	2	9	15	6&13	3	3	4
Sa RN4220 lethal	1.9	-0.7	2.1	1.8	4.8&3.7	0.0	-3.3	5.4

33) O=C1NCCN1Cc1ccccc1
34) CCCOc1ccc(C=NNc2ccccc2[N+](=O)[O-])c(OCCC)c1
35) CC1(CC(=O)N/N=C/c2ccc(-c3ccc(Cl)cc3)o2)OCCO1
36) Cc1cccc(-n2nc3c(c2NC(=O)c2ccc(Br)o2)CSC3)c1
37) Nc1ccc(C#Cc2ccc3oc4ccccc4c(=O)c3c2)cc1
38) COc1ccc2c(c1)CCC(C)N2C(=O)C(=O)c1c[nH]c2ccccc12 (stereo not given)
39) O=C1SCCN1N=Cc1ccc([N+](=O)[O-])o1
40) CCOc1ccc(NC(=S)Nc2ccc(Br)cc2Cl)cc1

Assay by compound	33	34	35	36	37	38	39	40
Bead autofluor	7960	/	1921	9783	4083	4514	3739	4412
BJeLR lethal	3	/	-2	-1	8	2	/	2
Sa ugtP lethal	11	0	/	0	6	12	65	-10
PrP UTR inh	-18	/	-32	-16	-27	-39	-18	-5
Mtb hypoxia rep	0	7	/	-4	1	13	16	10
Mtb hypoxia rep growth	-2	12	/	-2	-1	7	25	20
Sa RN4220 lethal	4.8	-3.9	/	24	-8.9	5.1	32	-1.7

41) O=C(Oc1ccccc1)c1c(Cl)cccc1P(=O)(O)O
42) CCCNc1c(N)n(-c2ccccc2)c(=O)[nH]c1=O
43) CN(C)S(=O)(=O)c1cccc(NC(=O)CCCSc2ccccc2)c1
44) CNC(=S)NNC(=O)c1ccccc1F
45) Cc1ccc(/C=C/C(=O)Nn2cnnc2)cc1
46) CC(=O)Nc1cccc(NC(=O)c2c(-c3ccccc3)noc2C)c1
47) COc1cc(/C=N/NC(=O)CNS(=O)(=O)c2ccc(C)cc2)cc(OC)c1OC
48) CC(C)Cc1ccc(C(C)C(=O)Nc2ncccn2)cc1 (stereo not given)

Assay by compound	41	42	43	44	45	46	47	48
Bead autofluor	2914	21763*	6079	2152	4681	2161	3622	4746
BJeLR lethal	-4	0	1	5	3	-2	0	3
Sa ugtP lethal	-1	-12	8	6	-6	-1	/	5
PrP UTR inh	-14	-9	-22	-15	-30	-4	-5	-11
Mtb hypoxia rep	11	2	7	-3	/	8	/	3
Mtb hypoxia rep growth	2	7	2	-3	/	11	/	-1
Sa RN4220 lethal	4.5	2.0	2.4	4.1	-2.0	5.4	/	11

49) CC(C)(C)OC(=O)CCC(C(=O)N1CCN(C(=O)OC(C)(C)C)CC1)n1cc(C(CO)NC(=O)OC(C)(C)C)nn1 (stereo not given)
50) CC(C)c1ccc(NC(=O)c2sccc2-n2cccc2)cc1
51) CCCc1nnc(NC(=O)CN2CCOCC2)s1
52) O=C(CCc1ccc(S(=O)(=O)NCc2ccccc2)cc1)NCc1cccnc1
53) O=C(COC(=O)Cc1ccc(F)cc1)NC1CCCCC1
54) O=Cc1sc(=O)n(Cc2cccc(C(=O)O)c2)c1Cl
55) CCN1C(=O)C(=O)N(CC(=O)Nc2cc(C)ccc2C)C1=O
56) Cc1nc(SCC(=O)c2ccc(F)c(F)c2)[nH]c(=O)c1Oc1ccc(F)cc1

Assay by compound	49	50	51	52	53	54	55	56
Bead autofluor	/	2454	3933	9126	4020	4347	3909	4182
BJeLR lethal	/	10	1	20	/	5	/	5
Sa ugtP lethal	0	78	4	0	3	13	1	18
PrP UTR inh	/	-3	-22	-33	-11	-25	1	-15
Mtb hypoxia rep	-3	2	15	-5	6	1	7	11
Mtb hypoxia rep growth	14	12	21	-5	4	10	0	3
Sa RN4220 lethal	-1.7	21	5.9	1.7	4.5	11	2.0	9.3

57) CS(=O)(=O)N(CCc1ccccc1)CC(=O)Nc1ccc2c(c1)OCO2
58) O=C(c1cccc(COCC(F)(F)C(F)F)c1)N1CCN(c2ccccc2)CC1
59) Cn1nc(C(C)(C)C)cc1C(=O)NNC(=O)c1ccccc1Cl
60) Cc1cc(NS(=O)(=O)c2ccc(NC(=S)NCc3ccccc3)cc2)no1
61) CCOC(=O)c1ccc(NC(=S)NCC(O)c2ccccc2)cc1 (stereo not given)
62) CCOc1ccc(C2C(C#N)=C(N)N3C(=C2C#N)Sc2ccccc23)cc1 (stereo not given)
63) COC(=O)Cn1c(=NC(=O)CN2C(=O)CCC2=O)sc2cc(S(N)(=O)=O)ccc21
64) Cc1cnc(C(=O)OCC(=O)Nc2cccc(S(=O)(=O)N3CCOCC3)c2)cn1

Assay by compound	57	58	59	60	61	62	63	64
Bead autofluor	3170	9728	6025	3839	2449	4941	10760	3955
BJeLR lethal	-1	3	-6	3	-20	7	-9	/
Sa ugtP lethal	0	11	7	7	/	-18	/	1
PrP UTR inh	-15	-28	1	-32	-18	-78	-2	-13
Mtb hypoxia rep	1	8	0	4	/	6	/	18
Mtb hypoxia rep growth	1	6	4	2	/	11	/	10
Sa RN4220 lethal	6.7	2.8	3.3	9.0	/	2.9	/	6.0

65) CN(CC(=O)Nc1ccc(F)c(F)c1F)C(=O)CC1OC(=O)c2ccccc21 (stereo not given)
66) Nc1c(C(=O)NCc2ccco2)c2nc3ccccc3nc2n1CCN1CCOCC1
67) O=C(NC(=S)NCc1nc2ccccc2[nH]1)c1ccc(F)cc1
68) CCCCSc1nnc2c(n1)[nH]c1ccccc12
69) COCCn1c(-c2ccc(OC)cc2)cnc1SCC(=O)Nc1cccc2ccccc12

Assay by compound	65	66	67	68	69
Bead autofluor	?	21216*	4289	21409*	9193
BJeLR lethal	1	10	7	13	-5
Sa ugtP lethal	0	6	10	-9	-6
PrP UTR inh	-13	-20	-32	-63	1
Mtb hypoxia rep	6	7	-5	10	3
Mtb hypoxia rep growth	-3	2	13	13	4
Sa RN4220 lethal	1.5	-1.2	3.8	11	0.0
